From PubChem BioAssay
KCNQ2 enhance: KCNQ2 (rat) channel potentiation. B-score at 10 µM. AID 2239. 0.54% of 310,000 active. O88943. CHO-K1 KCNQ2, FluxOR thallium flux fluorescence; stronger effect = higher value;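 active = fluorescence ratio B-score at least 3 SD of library B-scores, with initial fluorescence B-score within 3 SD, cut at about 5.3 in these data; same plate scores as AID 2156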;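 also: B-score of peak minus minimum over baseline fluorescence ratio after K+ and Tl+ stimulus; positive B-score means potentiation of KCNQ2 with more thallium influx and brighter signal; only the inactives scoring about 0 or higher are listed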
Target sequence (O88943 whole entry, looked up): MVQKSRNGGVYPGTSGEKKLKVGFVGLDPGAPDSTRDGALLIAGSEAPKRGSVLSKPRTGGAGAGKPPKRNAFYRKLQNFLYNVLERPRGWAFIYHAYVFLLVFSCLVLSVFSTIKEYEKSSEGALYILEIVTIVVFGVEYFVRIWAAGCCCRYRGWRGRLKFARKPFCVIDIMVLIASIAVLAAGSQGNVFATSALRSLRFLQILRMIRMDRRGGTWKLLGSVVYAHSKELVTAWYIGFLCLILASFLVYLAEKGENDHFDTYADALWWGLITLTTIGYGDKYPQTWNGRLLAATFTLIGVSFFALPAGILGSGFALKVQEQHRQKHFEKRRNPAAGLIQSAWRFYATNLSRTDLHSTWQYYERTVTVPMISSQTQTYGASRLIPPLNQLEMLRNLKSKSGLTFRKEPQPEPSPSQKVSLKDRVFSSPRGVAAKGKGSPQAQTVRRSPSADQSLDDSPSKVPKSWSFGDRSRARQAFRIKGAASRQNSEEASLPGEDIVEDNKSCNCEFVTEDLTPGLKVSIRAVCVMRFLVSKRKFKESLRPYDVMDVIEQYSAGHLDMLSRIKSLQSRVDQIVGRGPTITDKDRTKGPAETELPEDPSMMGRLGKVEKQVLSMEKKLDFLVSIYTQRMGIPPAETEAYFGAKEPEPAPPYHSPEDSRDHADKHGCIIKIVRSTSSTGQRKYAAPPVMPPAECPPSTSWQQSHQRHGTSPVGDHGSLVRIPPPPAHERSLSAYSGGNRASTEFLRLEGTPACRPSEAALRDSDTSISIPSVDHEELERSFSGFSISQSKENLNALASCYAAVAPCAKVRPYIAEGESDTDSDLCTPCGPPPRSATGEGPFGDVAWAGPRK
KCNQ2 enhance baseline: second read-out of KCNQ2 enhance, no call of its own (marks repeat the call); B-score; compound at 10 µM; measured here: initial fluorescence intensity artifact check;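 brightness before thallium and not channel activity; 0 = typical well and far values either way flag optical interference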
An asterisk follows results filed as active.

SMILES	KCNQ2 enhance	KCNQ2 enhance baseline
Cn1c(=O)c(=O)n(C)c2cc(S(=O)(=O)N3CCN(C4CCCCC4)CC3)ccc21	0.63	-2.3
COC(=O)CSc1nnc([C@H](Cc2ccccc2)NC(=O)OC(C)(C)C)o1	1.7	-2.4
COc1ccc(C(=O)COC(=O)C2CC3CCCC(C2)C3=O)cc1Br (stereo not given)	0.65	2.3
CCn1nnnc1SCC(=O)N1c2ccccc2Sc2ccccc21	0.67	0.91
CCc1ccc(NC(=O)Nc2ccncc2)cc1	0.17	1
O=S(=O)(/N=C/c1ccccc1O)c1cccs1	0.79	-0.48
O=C(NCc1cccnc1)NC1CC(=O)N(c2ccc3c(c2)OCCO3)C1 (stereo not given)	0.75	1.3
Cc1ccc(NS(C)(=O)=O)c(C(=O)c2ccccc2)c1	0.74	0.21
CCc1c(C#N)c(N)nc(SCC(=O)OCc2ccccc2)c1C#N	1.4	1.1
Cc1cccc(/C=N/NC(=O)NC2CCCCC2)c1	1.5	0.46
N#CC(C(=O)c1ccccc1Cl)=C1SCCCS1	0.48	-0.75
COc1cc2[nH]c(=S)n(NC(=O)c3ccccc3)c(=O)c2cc1OC	0.86	3.4
O=C(Cn1nnc2ccccc21)N/N=C\c1cccs1	0.17	-0.37
CCOC(=O)[C@@H]1[C@H]2COc3ccccc3[C@H]2N2C(=O)N(c3cccc(F)c3)C(=O)[C@]12C	0.09	1.3
O=C(OCc1ccc(Cl)c(Cl)c1)c1cnccn1	1.1	-1.6
COc1ccc(OC)c2c1sc(=NC(=O)C1CCCCC1)n2C	0.01	1.8
CC(C)(C)c1ccc(-c2noc(CCC(=O)NCC3CCCO3)n2)cc1 (stereo not given)	1.8	1.4
O=C(Nc1ccc(-c2nc3ccccc3[nH]2)cc1)c1ccccc1NS(=O)(=O)c1ccc(F)cc1	0.15	0
CCCn1c(=S)[nH]c2cc(C(=O)N3CCc4ccccc4C3)ccc2c1=O	1	-1
CCC(=O)OC1(C)C(=O)C=C2C=C(CCCC(=O)OC)OC=C2C1=O (stereo not given)	0.45	0.71

As a working copy, two of the compounds above.
SMILES	KCNQ2 enhance	KCNQ2 enhance baseline
COc1ccc(C(=O)COC(=O)C2CC3CCCC(C2)C3=O)cc1Br (stereo not given)	0.65	2.3
CCn1nnnc1SCC(=O)N1c2ccccc2Sc2ccccc21	0.67	0.91

Additional structures follow:
SMILES	KCNQ2 enhance	KCNQ2 enhance baseline
CCn1ncc(Br)c1C(=O)Nc1cc(C)cc(C)c1	0.08	-1.8
Cc1cc2nnc(SC(C)C)n2c2ccccc12	0.71	-0.95
Cc1ccc(C)c(OCCCC(=O)N2CCOCC2)c1	0.97	-0.92
Cc1cc(C)c(NC(=O)C2CCCN(S(=O)(=O)c3c(C)noc3/C=C/N(C)C)C2)c(C)c1 (stereo not given)	5	-1.4
O=C(Oc1ccc[nH]c1=O)c1cccc(Cl)c1	0.02	-2
O=C(NCC1CCCO1)c1ccc(S(=O)(=O)Nc2ccccc2F)cc1 (stereo not given)	0.04	0.94
O=c1c2ccccc2ncn1-c1cccc([N+](=O)[O-])c1	2.1	-1.3
COCCN1CCN(C(=O)c2ccc3nc(Cc4ccc(OC)c(OC)c4)oc3c2)CC1	0.75	0.57
CC(=O)N1CCN(c2ccc(NC(=O)c3cc4ccccc4o3)cc2)CC1	1.1	1.2
Cc1ccc(C)c(N(CC(=O)NC2CCCC2)C(=O)c2csnn2)c1	0.63	0.69
CCSc1nsc(NC(=O)Nc2ccc(F)cc2F)n1	1.1	-1.2
O=C(CNc1cccc(S(=O)(=O)N2CCCC2)c1)Nc1cccc(F)c1	0.24	-0.97
COc1ccccc1CN=C1NC(=O)C(CC(=O)Nc2ccc(C(C)=O)cc2)S1 (stereo not given)	0.87	0.73
COc1cccc(N(C(=O)c2snc(C(N)=O)c2N)C(C(=O)NCc2ccccc2)c2ccc(O)cc2)c1 (stereo not given)	2.6	-0.49
CSCC[C@H](NC(=O)C1=NN(c2c(F)c(F)cc(F)c2F)C(=O)CC1)c1nc2ccccc2[nH]1	0.56	1.4
CCN(C(=O)COC(=O)C1CCN(S(=O)(=O)c2ccc3c(c2)OCCO3)CC1)C1CCS(=O)(=O)C1 (stereo not given)	0.9	0.71
Cc1nn(C)cc1/C=N\NC(=O)c1ccc(Cn2cc(Cl)cn2)cc1	1.1	0.92
Cc1ccc(Cl)cc1NC(=O)C1CC1c1ccccc1 (stereo not given)	6.2*	0.11*
N#Cc1ccccc1OCC(=O)NCC(c1cccs1)N1CCOCC1 (stereo not given)	1.4	-1.6
O=C(NC1CCCc2c1cnn2-c1ccc(F)cc1F)c1ccccc1N1CCOCC1 (stereo not given)	0.9	1.1
Nc1c(Cl)cc(-c2csc(N3CCCC3c3nc4cc(Cl)c(N5CCCCC5)cc4n3CCOCCO)n2)cc1Cl (stereo not given)	6.3*	-0.8*
N#Cc1ccsc1NC(=O)c1ccc(Cl)c([N+](=O)[O-])c1	0.1	-0.36
CCCc1cc(=O)n2[nH]c(SCc3ccc(Cl)cc3)nc2n1	1.7	-0.14
O=C(O)c1ccccc1NC(=S)NC(NC(=O)c1ccccc1[N+](=O)[O-])C(Cl)(Cl)Cl (stereo not given)	3.2	-0.65
CN(CC(=O)NCC1CCCCC1)S(=O)(=O)c1ccc(Cl)cc1	1.2	0.97
Fc1ccccc1NC(=S)N/N=C/c1ccccc1Br	1.7	0.39
O=C(NC(=S)NC1CCS(=O)(=O)C1)c1cccc([N+](=O)[O-])c1 (stereo not given)	0.58	-0.45
CCN1CCN(C(=O)CSc2cc(=O)n(CC)c3ccccc23)CC1	0.05	-1.9
CC(=O)OCCCCON1C(=O)c2ccccc2C1=O	0.69	1.1
CN(C)c1ccnc(Oc2ccc(F)cc2)c1C#N	0.9	-0.55
C/C(CC(=O)Nc1ccccc1C)=N\NC(=O)Cc1csc(N)n1	1.5	-1.2
COCC1CCCN(C(=O)c2ccc3oc(C(C)C)nc3c2)C1 (stereo not given)	1.3	-0.39
O=C(NCCN=C1NS(=O)(=O)c2ccccc21)c1ccco1	0.15	0.71
Cc1c(C(=O)OC/C(O)=C(\C#N)c2nc3ccccc3[nH]2)oc2ccccc12	0.59	0.01
CCOC(=O)c1c(NC(=O)COc2ccccc2F)sc2c1CC(C)(C)NC2(C)C	0.49	-1.2
CC(=O)OC1c2ccccc2C(=O)N1Cc1ccccc1 (stereo not given)	0.15	0.35
O=c1[nH]cc(C(F)(F)F)cc1NS(=O)(=O)c1ccc([N+](=O)[O-])cc1	0.03	-0.5
Cc1nc(SCC(=O)Nc2c(C)n(C)n(-c3ccccc3)c2=O)n[nH]1	0.5	-0.59
O=C(Nc1cnc2ccccc2c1)N1CCCCC1	0.64	0
COc1ccc(-c2csc(NC(=O)CSc3nnnn3C)n2)cc1OC	1.7	-0.34
CCOc1ccc(-c2cc(CCCC(=O)NCCc3ccc(OC)c(OC)c3OC)no2)cc1	1.7	1.6
COc1ccc(NC(=O)c2cc(-c3ccccc3)on2)cc1	0.61	0.83
O=C(Nc1ccc(-c2ccc3nncn3n2)cc1)C1CCCCC1	0.09	0.07
Cc1oc(CN2CCOCC2)cc1C(=O)O	3.3	-1
O=c1[nH]cnc2c1cnn2Cc1ccccc1Cl	1.2	-0.35
O=C(O)C12CC3CC(C1)CC(n1cnc(Cl)n1)(C3)C2	0.35	-1.1
CCOC(=O)/C(=C/Nc1ccc(F)cc1)[N+](=O)[O-]	0.85	-0.92
COc1ccccc1CCN1CCCC(CN(C)C(=O)c2ccoc2)C1 (stereo not given)	0.24	-1.2
CCOC(=O)c1sc(=S)n(CC)c1N	0.8	-0.98
CSc1ccc(CCNC(=O)C2CCCN(S(=O)(=O)N3CCOCC3)C2)cc1 (stereo not given)	0.82	-0.85

Next part; it opens with the 6 that closed the last part.
SMILES	KCNQ2 enhance	KCNQ2 enhance baseline
O=c1[nH]cnc2c1cnn2Cc1ccccc1Cl	1.2	-0.35
O=C(O)C12CC3CC(C1)CC(n1cnc(Cl)n1)(C3)C2	0.35	-1.1
CCOC(=O)/C(=C/Nc1ccc(F)cc1)[N+](=O)[O-]	0.85	-0.92
COc1ccccc1CCN1CCCC(CN(C)C(=O)c2ccoc2)C1 (stereo not given)	0.24	-1.2
CCOC(=O)c1sc(=S)n(CC)c1N	0.8	-0.98
CSc1ccc(CCNC(=O)C2CCCN(S(=O)(=O)N3CCOCC3)C2)cc1 (stereo not given)	0.82	-0.85
Cc1cccc(CSc2nc3c(c(=O)n2C)SCC3)c1	1.2	1.3
NC(=O)c1cc(N)ccc1N1CCCCC1	1.5	-1.2
CN1/C(=C\C(=O)COC(=O)C2COc3ccccc3O2)C(C)(C)c2ccccc21 (stereo not given)	0.28	-1.3
N#C/C(=C\c1c(N2CCCCC2)nc2ccccn2c1=O)S(=O)(=O)c1ccccc1	0.42	0.48
Cc1cccc(NC(=O)CCNS(=O)(=O)c2cccc3nsnc23)c1	0.5	0.28
Cc1ccc(NC(=O)CSc2nc(-c3ccco3)nc3cc(=O)[nH]n23)c(Cl)c1	0.44	2.6
CCOc1cccc(CN2CCCC(C(=O)Nc3ccc(-c4ccn[nH]4)cc3)C2)c1O (stereo not given)	0.03	-0.44
Cc1ccc(-c2nnn(CC(=O)N(Cc3cccs3)C(C(=O)NC(C)(C)C)c3ccco3)n2)o1 (stereo not given)	0.32	-0.26
Cc1cc(C)c(NC(=O)CCCOC(=O)C2=COCCO2)c(C)c1	2.1	-2.1
O=C(CCN1C(=O)C2C3C=CC(C4CC34)C2C1=O)Nc1ccc(Cl)cc1O (stereo not given)	0.91	-0.68
CSc1ccc(/C=C/C(=O)OCC(=O)NC(C)C)cc1	0.5	0.47
COc1ccc(NC(=O)C/C(C)=N/NC(=O)c2cnccn2)cc1Cl	1	-0.07
CC(C)NCCOCCOc1ccc(Cl)cc1Br	1.5	-0.87
O=C(Cn1nnc(-c2cccs2)n1)NNC(=O)c1ccccc1Cl	1.1	1.4
CCc1ccc(OCC(=O)NNC(=O)C2CCC2)cc1	1.7	-0.37
COc1ccccc1C(C(=O)NCc1ccc(F)cc1)N(C(=O)c1csnn1)C1CC1 (stereo not given)	0.8	1.6
CCCC(=O)Nc1cc2c(cc1C(=O)c1ccccc1)OCCO2	0.86	-0.83
O=C(O)CC12C[C@H]3C[C@@H](C1)CC(n1ncc(N4CCN(c5ccccc5)CC4)c(Cl)c1=O)(C3)C2	0.7	-1.6
CCC(CCC(=O)Nc1ccn(-c2ccccc2)n1)C(=O)O (stereo not given)	1.8	-0.28
Cn1c2ccc(F)cc2c2nc3ccccc3nc21	0.54	1.5
Cc1ccccc1-c1nc(CN2CCC(C(=O)NCCCN3CCCC(C)C3)CC2)c(C)o1 (stereo not given)	0.25	-1.1
Cc1ccccc1OC(C)C(=O)Nc1ccc(S(=O)(=O)N2CCCC2)cc1 (stereo not given)	0.12	0.37
O=c1cc(O)nc[nH]1	1.2	-1.3
COc1ccc(-c2csc(=NCCO)n2-c2ccccc2)cc1	1.1	0.01
CCn1c(CCNC(=O)c2cccs2)nnc1SCC(=O)NC1CCCCC1	0.54	0.54
COc1ccc2oc(=O)cc(CN3CCOCC3)c2c1	0.01	-0.48
O=C(CCC1CCN(C(=O)c2cc(C(F)(F)F)ccc2Cl)CC1)NC1CC1	0.48	0.84
O=C(COc1ccc(S(=O)(=O)N2CCOCC2)cc1)Nc1ccccc1Cl	0.33	0.01
Cc1cc(C(=O)NCCC2=CCCCC2)no1	0.16	-2.8
CCOC(=O)Cn1cnc2sc(C(=O)OC)c(C)c2c1=O	0.14	-1.1
CCOc1cc(NC(=O)C2CC2)c(OCC)cc1NC(=O)c1cc(OC)c(OC)c(OC)c1	0.33	0.42
COC(=O)C1=C(C)NC(C)=C(C(=O)OC)C1C(=O)OC(C)C(=O)c1ccccc1 (stereo not given)	0.4	0.79
O=C1C(NS(=O)(=O)c2ccc(Br)cc2)=C(N2CCCCC2)C(=O)c2ccccc21	0.25	-1.2
O=C1CCCN2N=C(SCC(=O)Nc3nc4ccccc4s3)SC2=N1	1.8	1.7
CS(=O)(=O)Cc1nc2ccccc2oc1=O	0.9	-0.92
CC1(C)CC(N2CCN(c3ccccc3)CC2)=CC(=[N+]2CCCC2)C1	0.61	-0.9
Cc1ccc(N2CCCC2=O)cc1S(=O)(=O)N1CCOCC1	1.2	-1
COc1ccc(N2C(=O)CC(Sc3nnc(-c4ccccc4F)n3C)C2=O)cc1 (stereo not given)	0.44	-1.3
COC(=O)C1(C)NC(c2ccccc2OC)C2C(=O)N(c3ccccc3)C(=O)C21 (stereo not given)	0.97	-0.56
CC(=O)Nc1ccccc1NC(=O)CN(C)S(=O)(=O)c1ccc(C)cc1	1.2	1.3
CCOc1cc(/C=N/N2C(=O)NC3(CCCCC3)C2=O)cc(Br)c1O	0.26	0.01
CC(C)CC(c1nnnn1C1CCCC1)N1CCC(C(N)=O)CC1 (stereo not given)	0.01	0.44
COC(=O)c1ccc2c(=O)n(CCCCCC(=O)N3CCN(c4ccc(F)cc4)CC3)c(=O)[nH]c2c1	0.29	-0.38
CC(=O)/C(C#N)=C1\NC(=O)C(Cc2ccccc2Cl)S1 (stereo not given)	1	-1.4
COc1ccc(NS(=O)(=O)c2cccc(N3CC(O)=C(c4ccccc4)C3=N)c2)cc1	1.3	-0.18

Ordered by value in KCNQ2 enhance baseline (falling): 3 of the compounds above
| molecule | KCNQ2 enhance baseline |
| --- | --- |
| CC(C)CC(c1nnnn1C1CCCC1)N1CCC(C(N)=O)CC1 (stereo not given) | 0.44 |
| COc1ccc(NS(=O)(=O)c2cccc(N3CC(O)=C(c4ccccc4)C3=N)c2)cc1 | -0.18 |
| COC(=O)c1ccc2c(=O)n(CCCCCC(=O)N3CCN(c4ccc(F)cc4)CC3)c(=O)[nH]c2c1 | -0.38 |

Not all compounds are listed; rates above refer to the full screens.
